TRPML1 ag: agonists of human TRPML1 channel | TRPML1-expressing cells, Ca2+ dye fluorescence, FDSS; host cell line not named in the record; reference of the full effect not given here | activation, % (no concentration beside the values) | 410,000 compounds, 0.12% hits; in the data active = activation above about 50%; inconclusive = about 30% to 50%; inactive = below about 30%; note: 0% is about no effect; the text of the record puts the active cut at 80%
Target sequence (Q9GZU1 whole entry, looked up): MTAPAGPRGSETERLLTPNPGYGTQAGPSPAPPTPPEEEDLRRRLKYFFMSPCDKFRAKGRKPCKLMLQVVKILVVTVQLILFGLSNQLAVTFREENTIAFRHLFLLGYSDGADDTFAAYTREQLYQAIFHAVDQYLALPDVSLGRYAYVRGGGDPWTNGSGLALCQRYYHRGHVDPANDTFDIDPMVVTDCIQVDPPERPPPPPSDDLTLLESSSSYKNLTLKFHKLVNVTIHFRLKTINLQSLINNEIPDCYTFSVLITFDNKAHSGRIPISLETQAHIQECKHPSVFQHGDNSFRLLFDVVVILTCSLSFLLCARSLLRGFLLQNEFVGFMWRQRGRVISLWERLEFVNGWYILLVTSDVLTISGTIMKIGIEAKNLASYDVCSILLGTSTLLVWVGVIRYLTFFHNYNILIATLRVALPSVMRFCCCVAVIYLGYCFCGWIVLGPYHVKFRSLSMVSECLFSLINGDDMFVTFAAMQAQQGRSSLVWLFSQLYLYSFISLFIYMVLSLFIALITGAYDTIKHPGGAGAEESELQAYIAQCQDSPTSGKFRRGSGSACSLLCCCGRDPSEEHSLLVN
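Agonist activity was taken from a 110 s kinetic Ca2+ dye read on the FDSS after pinning compounds onto TRPML1-DL cells. The cells were seeded at 1,500/well with Tet inducer, incubated about 16 h, then dye-loaded at room temperature.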
Six1-Eya2 inh: blocks human Six1 binding to Eya2; activity change, % (concentration not given with the values); AlphaScreen GST-Six1/His-Eya2 binding, biochemical; hits give low values; control for the full effect not named in the record; 360,000 compounds, 0.56% hits; Q15475+O00167; in the data active = activity change below about -65%; inconclusive = about -30% to -65%; inactive = above about -30%; note: % is set by controls: 0 for no effect and ±100 for the full control effect
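GST-Six1 + His-Eya2 (5X stock: 250/500 nM); Tris pH 8.0, 300 mM NaCl, 0.05% BSA, 0.02% Tween 20; GSH donor/Ni acceptor beads; 1 h 37 °C dark; AlphaScreen readout.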
PINK1 expr mod: changes PINK1 expression | 410,000 compounds, 0.2% hits | PINK1 immunofluorescence, high-content cytometry, 24 h | Potency, µM (titrated, usually from 76.6 µM), for inactives: at the top dose activation (PINK1 increase), actives largely listed as activators | AID 624263; active = well fitted activation curve with a large enough effect; inconclusive = small, poorly fitted or top-dose-only effect; inactive = flat fitted curve, though single readings scatter; cell line not stated here;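 note: potency is the fitted concentration of half-maximal effect; % of control where 0% means no effect; nearly all actives have a fitted effect of over 65% in size; a mitochondrial uncoupler was the plate control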
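Stable cell line, 250 cells/well, 12 h attachment; compounds pinned at 5 concentrations, 24 h; CCCP control. Fixed with nuclear dye, primary antibodies 12 h at 10 degrees C, secondary plus cell stain; laser-scanning cytometer read.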
D2 agonist: agonists of human D2 dopamine receptor (beta-arrestin); activation, % (test concentration not listed); AID 624465; 360,000 compounds, 0.084% hits; DiscoveRx PathHunter D2 beta-arrestin, luminescence, 90 min; 100% = 57 uM dopamine signal; in the data active = activation above about 40%; inconclusive = about 15% to 40%; inactive = below about 15%; note: compound concentration not given in the record; the text of the record calls up to 30% inactive
Target sequence (P14416 whole entry, looked up): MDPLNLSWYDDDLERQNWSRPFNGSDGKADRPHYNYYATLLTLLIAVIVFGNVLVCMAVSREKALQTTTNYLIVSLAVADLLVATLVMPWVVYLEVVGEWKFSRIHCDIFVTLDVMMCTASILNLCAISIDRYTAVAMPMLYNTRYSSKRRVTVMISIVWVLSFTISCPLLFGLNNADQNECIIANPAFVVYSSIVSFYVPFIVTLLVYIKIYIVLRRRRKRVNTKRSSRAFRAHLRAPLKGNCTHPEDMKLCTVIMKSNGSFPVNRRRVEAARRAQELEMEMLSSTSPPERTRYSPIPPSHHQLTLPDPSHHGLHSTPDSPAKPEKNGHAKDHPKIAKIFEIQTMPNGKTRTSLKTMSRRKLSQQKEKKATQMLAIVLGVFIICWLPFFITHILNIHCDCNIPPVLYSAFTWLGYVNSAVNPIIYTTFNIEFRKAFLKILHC
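DiscoveRx PathHunter D2 beta-arrestin cells (2,100/well) attached overnight, then compound-stimulated 90 min at 37 C in HBSS/10 mM HEPES/0.1% Tween-20 buffer; beta-galactosidase complementation read by luminescence after 1 h at ambient temperature. Dopamine 57 uM final (EC100) as control.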
CtBP-E1A blk: CtBP/E1A binding inhibition; AlphaScreen GST-E1A/His-CtBP binding, 1536-well; hits give low values; control for the full effect not named in the record; activity change, % (no concentration beside the values); 340,000 compounds, 0.49% hits; AID 651724; in the data active means activity change below about -65%; inconclusive means about -30% to -65%; inactive means above about -30%; note: % is set by controls: 0 for no effect and ±100 for the full control effect
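AlphaScreen with 125 nM GST-E1A and 125 nM His-CtBP (5X stocks) in Tris pH 8.0, 300 mM NaCl, BSA, Tween 20, TCEP. Compounds preincubated 2 h at 37 deg C, then glutathione donor/nickel acceptor beads added for 1 h at 37 deg C in dark.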
D2 potentiator: positive allosteric modulators of human D2 dopamine receptor; 360,000 compounds, 0.23% hits; DiscoveRx D2 beta-arrestin cells, luminescence, 90 min; 100% = 57 uM dopamine signal; P14416; potentiation, % (no concentration beside the values); active = potentiation of 50% or more; inconclusive = 30% to 50%; inactive = 30% or less;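 note: compound concentration not given in the record; tested on top of an EC20 dose of dopamine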
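PathHunter D2 cells, attached overnight at 37 deg C, received compound in DMSO plus dopamine at EC20 (50 nM final) for 90 min at 37 deg C. Beta-arrestin recruitment was read as luminescence after 1 h with detection reagent at ambient temperature.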
Numbers without * were called inactive; ? = inconclusive; . = no result given; [ ] = remark or other dose.

SMILES | TRPML1 ag | Six1-Eya2 inh | PINK1 expr mod | D2 agonist | CtBP-E1A blk | D2 potentiator
Fc1ccc2c(c1)nnn2C1CCN(Cc2nnnn2C2CCCCC2)CC1 | 2.8 | 10.8 | -0.7% | 1.2 | 1.6 | -23.4
O=C(O)C1CSC(c2cccnc2)N1 (stereo unspecified) | -0.1 | 8.8 | 3.1% | -1.0 | 27.4 | -2.7
CN1CN=C(N[N+](=O)[O-])N(Cc2ccco2)C1 | -0.2 | 5.9 | 0.2% | -2.8 | 1.5 | 1.4
COc1ccc(C2NCc3ccccc3-n3cccc32)cc1 (stereo unspecified) | 0.5 | ? | 6.4% | -3.6 | -12.2 | -13.3
Oc1ccc(O)c2c1C1(Cl)C(Cl)=C(Cl)C2(Cl)C1(Cl)Cl | 0.8 | -5.7 | -4.5% | 4.4 | -4.0 | -1.9
CC(=O)c1cn(CCCOc2ccccc2)c2ccccc12 | 2.6 | 0.2 | 3.1% | 6.7 | . | -6.7
O=C(c1ccc2c(c1)ncn2C1CCCCC1)N1CCC2(CC1)OCCO2 | -0.6 | 0.5 | 14.3% | -1.4 | 9.9 | -16.8
CCCC[N+]1(C)[C@@H]2CC(OC(=O)[C@H](CO)c3ccccc3)C[C@H]1[C@@H]1O[C@@H]12 (stereo partly specified) | -0.5 | -4.9 | 3.8% | -4.3 | 1.1 | -4.4
C=CCn1c(O)c(C(CC)=Nc2ccccc2NC(C)=O)c(=O)[nH]c1=O | -0.6 | 0.0 | 4.4%[38.3 µM] | 1.4 | 43.8 | 2.1
CC1CC2CC(=O)CCC2(C)C2CCC3(C)C(O)CCC3C12 (stereo unspecified) | -0.2 | 1.1 | 0.7% | -1.2 | 0.2 | -5.4
Clc1ccc(OCC#CCN2CCCC2)cc1 | -0.6 | -10.9 | 2.6% | -3.2 | -7.3 | -11.3
Cc1c(C(=O)C(=O)N2CCOCC2)c2ccccc2n1Cc1ccccc1 | -1.1 | -0.9 | 0.0% | -1.5 | 1.6 | -2.9
CCCOC(=O)C1C2CCC(O2)C1C(=O)O (stereo unspecified) | -0.9 | 2.7 | 9.3% | 0.7 | 21.4 | -5.7
Cn1cc([N+](=O)[O-])c(C(=O)Nc2ccc3c(C(F)(F)F)cc(=O)oc3c2)n1 | -0.3 | 1.9 | -1.0% | 1.0 | -7.5 | -0.3
COC(=O)c1c(C)[nH]c(C(=O)C(Cc2ccccc2)N(C)C)c1C (stereo unspecified) | -0.4 | 3.9 | -1.5% | -0.2 | -2.6 | -11.9
O=c1c2ccccc2nc(N2CCCC2)n1-c1ccccc1 | -1.5 | 3.7 | 0.0% | -3.4 | 0.9 | -8.8
Cc1ccc(S(=O)(=O)N2CCCC2c2cccnc2)cc1 (stereo unspecified) | -0.4 | -17.2 | 1.3% | 0.5 | -0.4 | -3.6
Cc1c2cnn(CC(=O)N3CCC4(CC3)OCCO4)c(=O)c2c(C)n1Cc1ccccc1F | 0.0 | 0.6 | -0.5% | -7.6 | -2.8 | -6.5
CCC1CN1P(=O)(N1CCCC1)N1CC1CC (stereo unspecified) | -0.4 | -0.6 | -0.8% | 1.9 | 0.8 | 9.8
CCOC(=O)C(O)(c1ccc(N)c(OC)c1)C(F)(F)F (stereo unspecified) | -1.3 | 0.1 | -0.4% | -2.6 | 4.8 | 3.7
CCOc1ccc(N=Cc2c(O)n(-c3cc(C)cc(C)c3)c(=O)[nH]c2=O)cc1 | 3.0 | 5.0 | 1.2% | -0.6 | -0.3 | -4.1
CSCCC(NC(=O)CCC(=O)OC1CC[C@H]2[C@@H]3CC[C@H]4CC(=O)CC[C@]4(C)[C@H]3CC[C@]12C)C(=O)O (stereo partly specified) | 0.1 | -8.8 | 0.8% | -0.4 | . | -2.3
CCOC(=O)CNC(=S)N1CC2C[C@@H](C1)Cn1c2cccc1=O | 0.8 | 1.3 | -2.8% | -3.5 | 2.6 | -0.1
O=C1/C(=C/c2ccc3c(c2)OCO3)N2CCC1CC2 | -1.0 | 5.7 | -1.8% | 3.3 | -0.6 | 0.9
Cc1cc(OCC(=O)N2C[C@H]3C[C@@H](C2)c2cccc(=O)n2C3)c2c(C)c(C)c(=O)oc2c1 | . | -0.9 | 2.8% | -6.0 | -9.8 | -34.9

(further entries)
SMILES | TRPML1 ag | Six1-Eya2 inh | PINK1 expr mod | D2 agonist | CtBP-E1A blk | D2 potentiator
CC(C)(COC(=O)C(c1ccccc1)c1ccccc1)CN1CCOCC1 | 3.1 | 16.8 | ? | -0.9 | 28.8 | -7.0
CCN1C(=O)C(=Cc2cc(C)n(C3CC3)c2C)C(=O)N(CC)C1=S | 4.3 | -0.9 | 22.2% | -0.6 | 4.7 | 3.3
Cc1noc(C)c1COc1ccc(C(=O)NCC2(N(C)C)CCCCC2)cc1 | -0.3 | 2.0 | 0.1% | -2.1 | 0.1 | -13.5
O=S(=O)(c1ccc(Cl)cc1)N1CCCC1c1cccnc1 (stereo unspecified) | -0.6 | -6.0 | 0.0% | -1.0 | 3.5 | -7.3
CCN1C[C@]2(COC)CC[C@H](OC)[C@@]34C1[C@]1(OCO[C@@]15C[C@H](OC)[C@H]1C[C@@H]3[C@@H]5[C@H]1OC)[C@@H](O)[C@H]24 | 0.1 | 2.5 | 1.0% | -3.8 | -0.6 | -6.6
CC(C)(C)P(=O)(c1ccncc1)N1CCCC1 (stereo unspecified) | -0.3 | 6.2 | . | -0.5 | 0.9 | -6.1
C#CC[N+]1(C)C2CCC1CC(O)C2 (stereo unspecified) | 1.8 | 0.0 | 1.4% | -0.4 | 0.0 | -7.0
c1ccc2c(N3CCNCC3)cccc2c1 | -0.6 | -3.5 | 3.8% | 2.2 | -3.6 | -20.7
Cc1ccc(C(=O)N2CC2C)cc1 (stereo unspecified) | 0.4 | 12.8 | 1.5% | -2.1 | -3.9 | -32.1
COc1ccc(N2C(=O)C(=O)N(c3ccc(OC)cc3)P2(=O)N(CCCl)CCCl)cc1 | -0.1 | -15.2 | 2.8% | -3.5 | 0.8 | 0.7
Nc1c([N+](=O)[O-])cc(F)c(N2CCNCC2)c1Br | 0.8 | -11.3 | 1.1% | 0.6 | -14.4 | -12.2
Cc1ccccc1Cc1c(C)nc2nc(SCC(=O)N3CCC4(CC3)OCCO4)nn2c1C | -0.7 | 11.5 | 2.0% | -3.2 | 0.0 | -0.5
CNC(=S)N1CCn2cccc2C1c1cccnc1 (stereo unspecified) | -1.0 | -13.0 | 0.3% | -1.5 | 0.8 | 0.6
C=CCCC1(C2=CCCCC2)C(=O)NC(=O)NC1=O | 0.0 | 11.1 | -1.7% | -2.6 | 7.3 | -9.1
COC(=O)C1=C(c2cccc(C#N)c2)C[C@@H]2CC[C@H]1N2C(=O)NC1Cc2ccccc2C1 | 1.3 | 2.8 | 1.6% | -2.6 | . | -14.9
Cc1ccc2c(c1)CC1(CN2C)C(=O)NC(=O)N(CCC2=CCCCC2)C1=O (stereo unspecified) | -0.2 | 7.8 | 2.0% | 1.7 | 3.4 | 3.4
COc1cccc(-n2c(O)c(C=Nc3c(C)n(C)n(-c4ccccc4)c3=O)c(=O)[nH]c2=O)c1 | 2.7 | -1.7 | 0.5% | -2.0 | 2.4 | -3.8
COC(=O)C1=C(c2ccc(Cl)c(C(F)(F)F)c2)C[C@@H]2CC[C@H]1N2C | 0.2 | 8.2 | 0.0% | -0.6 | -5.0 | -29.1
COC(=O)[C@H]1C[C@@H]1[C@H](NP(=O)(c1ccccc1)c1ccccc1)c1ccccc1 | -0.1 | -5.9 | 0.0% | -0.4 | 5.7 | -10.9
COc1ccc(N2C(=O)NC(=O)/C(=C\c3cn(CC(=O)N4CCOCC4)c4ccccc34)C2=O)c(OC)c1 | 1.0 | 0.4 | 6.0% | -1.1 | 0.9 | 0.1
CN1CC(C(=O)c2ccccc2)C(c2ccccc2)C1 (stereo unspecified) | -1.2 | -0.9 | -0.1% | 2.8 | 0.8 | -13.9
OC1(c2ccc(F)cc2)CCNC1 (stereo unspecified) | -0.9 | 6.8 | 0.0% | -4.1 | 4.7 | -8.4
C[C@@H]1CN([C@H](C)CO)C(=O)CCCn2nncc2CO[C@H]1CN(C)C(=O)Oc1ccccc1 | . | 1.4 | 1.0% | -3.0 | 4.0 | .
O=C1CN=C(c2ccccc2)c2cc(Cl)ccc2N1 | -0.8 | 0.8 | 0.0% | -1.2 | -17.0 | -9.4
O=c1cccc2n1CC1CC2CN(C(c2cccc(F)c2)c2sc3ncnn3c2O)C1 (stereo unspecified) | -0.4 | 2.8 | -0.1% | -0.8 | 2.8 | 0.3

In the list so far, these contain a CF3 group.
SMILES | TRPML1 ag | Six1-Eya2 inh | PINK1 expr mod | D2 agonist | CtBP-E1A blk | D2 potentiator
Cn1cc([N+](=O)[O-])c(C(=O)Nc2ccc3c(C(F)(F)F)cc(=O)oc3c2)n1 | -0.3 | 1.9 | -1.0% | 1.0 | -7.5 | -0.3
CCOC(=O)C(O)(c1ccc(N)c(OC)c1)C(F)(F)F (stereo unspecified) | -1.3 | 0.1 | -0.4% | -2.6 | 4.8 | 3.7
COC(=O)C1=C(c2ccc(Cl)c(C(F)(F)F)c2)C[C@@H]2CC[C@H]1N2C | 0.2 | 8.2 | 0.0% | -0.6 | -5.0 | -29.1

(listing goes on)
SMILES | TRPML1 ag | Six1-Eya2 inh | PINK1 expr mod | D2 agonist | CtBP-E1A blk | D2 potentiator
CC12CN3CC(C)(CN(C1)C3c1ccncc1)C2=O (stereo unspecified) | 0.5 | 5.0 | -1.0% | -0.2 | 2.1 | -11.0
CCCNC(=O)N1[C@H]2CC[C@@H]1C(C(=O)OC)=C(c1ccc(OC(F)(F)F)cc1)C2 | -0.4 | 3.1 | 0.6% | -3.9 | 1.3 | -11.7
CC(C)COC(=O)c1ccccc1C(=O)OCC(C)C | 1.5 | 24.3 | 14.1% | -1.3 | 8.6 | 1.2
CN1C(=O)NC(=O)/C(=C\c2ccc([N+](=O)[O-])o2)C1=O | 0.2 | ? | -3.7% | 8.1 | -1.0 | -3.6
CCOP(=O)(OCC)C(NC(=O)Cc1ccccc1)C(Cl)(Cl)Cl (stereo unspecified) | -0.6 | 6.7 | 0.7% | 2.4 | 8.6 | 0.9
CC(=O)Nc1ccc(S(=O)(=O)N2Cc3ccccc3-n3nncc3C2)cc1 | 0.2 | -2.0 | 0.6% | -8.9 | -10.9 | -1.1
COc1ccc(CCC(=O)N2C[C@H]3C[C@@H](C2)c2cccc(=O)n2C3)cc1 | . | 3.2 | 0.6% | -3.6 | 4.6 | -12.1
CCCCN1C(=O)NC(=O)C2(Cc3ccccc3N3CCOCC32)C1=O (stereo unspecified) | 0.2 | 0.8 | -1.7% | -0.9 | 0.0 | 0.0
C[C@@H]1CN([C@@H](C)CO)C(=O)CCCn2nncc2CO[C@H]1CN(C)C(=O)Oc1ccc2ccccc2c1 | 0.0 | -1.1 | -0.2% | -4.1 | -2.5 | 1.2
CC(O)C1C=CC=CC(=O)OC2CC3OC4C5OC5(C)C(O)CC4(COC(=O)C(O)C(C)CCO1)C2(C)C31CO1 (stereo unspecified) | -0.4 | 7.3 | -7.2% | -6.4 | -2.4 | -18.3
NC(=O)c1c(Br)n(C2OC(CO)C(O)C2O)c2ncnc(N)c12 (stereo unspecified) | 0.6 | 6.9 | -6.6% | 0.0 | 5.9 | 3.7

Assay outcomes (PubChem BioAssay)

These rows are one share of the data, so the mix of outcomes need not match the whole.
